GIV-Gai inh – GIV-Galpha-i interaction inhibition; P08753; Galpha-i3/FITC-GIV peptide fluorescence polarization, 90 min; active compounds read low; scaled: aluminum fluoride 0%, vehicle 100%; percent of control (FP), % (no concentration beside the values); 0.42% of 210,000 active;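 active = replicate mean at 85% of control or lower, very high polarization wells dropped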;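 also: wells of about 15 µL received 100 nL stock; the first replicate is given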
Target sequence (P08753 whole entry, looked up): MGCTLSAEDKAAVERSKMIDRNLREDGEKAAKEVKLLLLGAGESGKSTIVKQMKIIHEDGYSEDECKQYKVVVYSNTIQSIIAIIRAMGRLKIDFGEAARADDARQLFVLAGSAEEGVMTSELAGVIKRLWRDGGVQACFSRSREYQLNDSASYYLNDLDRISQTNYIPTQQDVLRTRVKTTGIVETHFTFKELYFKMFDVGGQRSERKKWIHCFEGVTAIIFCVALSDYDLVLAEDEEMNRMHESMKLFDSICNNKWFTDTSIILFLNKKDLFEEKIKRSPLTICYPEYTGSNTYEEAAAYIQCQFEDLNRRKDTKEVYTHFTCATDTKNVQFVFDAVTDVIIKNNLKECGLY
HCMV NEC inh – cytomegalovirus nuclear egress complex inhibition; HTRF UL50-UL53 interaction, normalized percent inhibition; 0.15% of 190,000 active; inhibition, % (test concentration not listed); AID 1918969;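 active = both replicates at 50% or more, plus weaker picks with an unusually low signal ratio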;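 also: stock transfer was 100 nL into about 20 µL; 0% = negative control wells and 100% = wells with untagged competitor protein; inactives centre near -12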
Sa growth 42C – blocks Staphylococcus aureus growth; S. aureus RN4220 growth, OD600, 20 h, 42 °C; active compounds read low; relative growth, % (test concentration not listed); 0.53% of 170,000 active;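 active = growth at 42 °C up to 50% and 20 or more points under that at 30 °C, or under 10% at both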;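 also: 300 nL library stock went into each well; scaled to the means of positive and negative controls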
Sa growth 42C second temp – further read-out of Sa growth 42C, marked with its call; relative growth, %; measured here: growth at 30 °C;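 optical density after 20 h as mean of two plates; 100% = untreated growth and lower means inhibition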
* hit, by the source's call; / = not tested or not shown; & = joins results of further samples.

item | SMILES | GIV-Gai inh | HCMV NEC inh | Sa growth 42C | Sa growth 42C second temp
1 | CC(=O)N(C)c1cccc2ccccc12 | 105 | -9 | 96 | 95
2 | CCC(=O)N1CCc2cc(Br)cc(S(=O)(=O)N(C)c3ccc(OC)cc3OC)c21 | 97 | 0 | 97 | 82
3 | COc1ccc(NC(=O)c2sc3nc(C)c(C(=O)Nc4ccc(C)cc4C)c(-c4ccccc4Cl)c3c2N)cc1 | 99 | -1 | 99 | 84
4 | CCN1CC=C2C(C1)C(c1ccc(Cl)s1)C(C#N)=C(N)C2(C#N)C#N (stereo not given) | -52* | -29 | 79 | 66
5 | CCN(Cc1ccccc1)C(=O)CSC1=Nc2ccccc2C2=NC(c3ccccc3)C(=O)N12 (stereo not given) | 101 | / | 78 | 72
6 | COc1ccccc1NC(=O)C1=C(C)Nc2nc(SCc3cc(C)ccc3C)nn2C1c1ccccc1 (stereo not given) | 104 | / | 125 | 102
7 | Cc1ccc2ccc3cc(C(=O)NCCC4=CCCCC4)nc3c2[nH]1 | 108 | -4 | / | /
8 | N#C/C(=C\c1ccccc1)c1nc(-c2cc3cc(Br)ccc3oc2=O)cs1 | 97 | -35 | 99 | 89
9 | Cn1nc(C(=O)Nc2ccccc2)c2c1-c1ccsc1CC2 | 106 | -32 | 93 | 95
10 | CCc1cc2c(cc3n2CC(C)(C(=O)NC2CCC(C)CC2)N(CCN2CCCC2)C3=O)s1 (stereo not given) | 101 | 5 | / | /
11 | O=C(CN1C(=O)CCc2ccccc21)NC1CCCc2ccccc21 (stereo not given) | 99 | / | 96 | 86
12 | CC(C)(C)c1nnc(NS(=O)(=O)c2ccc(F)cc2)s1 | 102 | -31 | 80 | 68
13 | CCOC(=O)c1cccc(NC(=O)Nc2ccc3c(c2)N(C)C(=O)c2ccccc2S3)c1 | 98 | 11 | 99 | 81
14 | O=C(OCCc1ccccn1)c1cnn2c(C(F)(F)F)cc(-c3ccccc3)nc12 | 108 | -26 | / | /
15 | CS(=O)(=O)N(CC(=O)NCc1ccco1)Cc1ccc(Cl)c(Cl)c1 | 105 | -7 | 105 | 71
16 | CC1C2C(C)N(C)C(=O)N(C)C2N(C)C(=O)N1C (stereo not given) | 104 | 4 | 95 | 89
17 | Cc1cccc(CNC(=O)c2ccc(N3Cc4ccccc4Oc4ncccc43)s2)c1 | 106 | / | 104 | 98
18 | COc1ccc(CCNc2nc3cc(OC)c(OC)cc3c3nc(-c4ccccc4)nn23)cc1OC | 106 | 13 | 92 | 87
19 | COc1ccc(NC(=O)CSc2cn(CCNC(=O)c3c(F)cccc3F)c3ccccc23)cc1 | 104 | 12 | 80 | 91
20 | CO[C@H]1C[C@H](O[C@H]2[C@H](C)[C@@H](O[C@@H]3O[C@H](C)C[C@H](N(C)C)[C@H]3OC(C)=O)[C@@H](C)C[C@@]3(CO3)C(=O)[C@H](C)[C@@H](OC(C)=O)[C@@H](C)[C@@H](C)OC(=O)[C@@H]2C)O[C@@H](C)[C@@H]1OC(C)=O | 101 | -40&-18 | 3.7* | -0.9*
21 | Cc1cc(-c2ccc(C)c(S(=O)(=O)Nc3ccc(C)c(N(C)C)c3)c2)on1 | 104 | / | 87 | 88
22 | Cn1c(=O)c2c(nc3n2CC=NN3)n(C)c1=O | 107 | -28 | 91 | 90
23 | Cc1cc(NC(=O)CNS(=O)(=O)c2ccc3nc(C)sc3c2)n[nH]1 | 103 | 2 | 98 | 92
24 | CCOc1cc(/C(O)=C(\C#N)c2nc3ccccc3[nH]2)cc(OCC)c1OCC | 103 | -11 | 122 | 96

Results in sequence from the list.
Sa growth 42C for entries 16–24: 95, 104, 92, 80, 3.7*, 87, 91, 98, 122
GIV-Gai inh for entries 16–24: 104, 106, 106, 104, 101, 104, 107, 103, 103

More records:
item | SMILES | GIV-Gai inh | HCMV NEC inh | Sa growth 42C | Sa growth 42C second temp
25 | COc1ccccc1N(C(=O)NCc1ccccc1)C1=NCC(C)S1 (stereo not given) | 108 | / | 126 | 76
26 | Cn1c(SCC(O)c2ccccc2)nnc1-c1ccc2ccccc2c1 (stereo not given) | 107 | -2 | 127 | 92
27 | Cn1[nH]c(=S)sc1=NCc1ccccc1 | / | -26 | 96 | 74
28 | Cc1ccc2c(C#N)cc(C)cc2c1 | 103 | -37 | 90 | 82
29 | CCCNC(=O)Cn1nc(CC)n2c(cc3ccccc32)c1=O | 106 | -11 | 92 | 103
30 | Cc1nn(-c2ccc(F)cc2)c2sc(C(=O)NO)cc12 | / | -16 | 111 | 87
31 | CC1CN(S(=O)(=O)c2cccc(C(=O)O)c2)CC(C)O1 (stereo not given) | / | 3 | 86 | 116
32 | COc1ccc(-c2nc3ccc4ccccc4c3c3c2CCCC3)cc1 | 101 | / | 96 | 80
33 | CCOc1ccc(NC(=O)CC2C(=O)N(c3ccc(OC)cc3)C(=O)N2CCC2=CCCCC2)cc1 (stereo not given) | 100 | -23 | 93 | 81
34 | COC(=O)c1c[nH]n2c(=O)c3c(nc12)C(=O)N(Cc1ccccc1)C3 | 101 | -12 | 87 | 82
35 | Cc1ccc(S(=O)(=O)N2CC3CCCC2C3)cc1 (stereo not given) | 102 | -4 | 114 | 92
36 | O=C(O)C1C2C=CC(C2)C1C(=O)Nc1nc2ccc(Br)cc2s1 (stereo not given) | / | -24 | 120 | 99
37 | Cc1ccc(S(=O)(=O)C2CS(=O)(=O)CC2S(=O)(=O)c2ccc(C)cc2)cc1 (stereo not given) | 99 | -5&-13 | 94 | 84
38 | Cc1nn(-c2ccccc2)c(Cl)c1/C=N/O | / | -20 | 114 | 78
39 | COc1ccc(CN(C(=O)Nc2cccc(OC)c2)C2CCN(C(C)=O)CC2)cc1 | 97 | / | 81 | 91
40 | COc1ccc(CNC(=O)C2=Cc3cccc(OC)c3OC2)cc1OC | 102 | / | 87 | 93
41 | CCOc1cc(C=C2C(=O)NC(=O)NC2=O)ccc1OCCOc1ccccc1OC | 105 | -18 | / | /
42 | CCN1C(=O)S/C(=C/c2cccs2)C1=O | 97 | -66 | 105 | 100
43 | COC(=O)C1=C(C)NC(C)=C([N+](=O)[O-])C1c1ccccc1C(F)(F)F (stereo not given) | 102 | -32&-11&-42 | / | /
44 | O=C(c1ccc2nonc2c1)N1CCN(C(c2ccccc2)c2ccccc2)CC1 | 106 | -16 | 102 | 85
45 | COc1nc(OC)nc(N2CCC(C(=O)NCC3CCCCC3)CC2)n1 | 105 | -1 | 120 | 101
46 | O=C1CC(N2CCCCC2CCO)C(=O)N1c1ccccc1 (stereo not given) | 107 | 13 | 102 | 89
47 | CCCC1=NN(C(=O)/C=C/c2cccs2)C(=O)C1Cc1c(F)cccc1Cl (stereo not given) | 97 | -8 | 78 | 52
48 | COc1ccc(CC(=O)NC2CCN(Cc3nnnn3C(C)(C)C)CC2)cc1OC | 103 | -1 | 91 | 79
49 | CNc1ccc2cccc(O)c2n1 | 106 | -31 | 0.4* | 0.6*
50 | CC(C)C(=O)Nc1ccc(Cl)cc1 | 99 | -1 | / | /
51 | COc1ccc(C2(C(=O)NCCN3CCOCC3)CCCC2)cc1 | 96 | -15 | 97 | 89
52 | O=C(NNC1=NCCC1)C1CC1 | / | -20 | 93 | 96
53 | O=C1c2ccccc2S(=O)(=O)N1Cc1ccccc1 | 100&102 | -6&-6 | / | /
54 | CS(=O)(=O)c1ccc(C(=O)Nc2ccc3sccc3c2)cc1 | 103 | -34 | 106 | 86
55 | COc1ccc(C(=O)Oc2cccnc2)cc1OC | 106 | -14 | 92 | 89
56 | CCOC(=O)c1cc(CC)sc1NC(=O)c1cccnc1Oc1ccccc1 | 98 | / | 106 | 91
57 | COCCNC(=O)c1cnc2sc3c(n2c1=O)CCC3 | 103 | -22 | / | /
58 | COc1ccc(C(=O)NCc2nnc(SCC(=O)Nc3ccccc3)n2-c2ccccc2)cc1 | 99 | 5 | 121 | 90
59 | COc1cccc2c1Oc1ncccc1N(C(=O)Nc1ccc3c(c1)OCCO3)C2 | 114 | -2 | / | /
60 | Nc1nnc(SCC(=O)Nc2ccccc2)s1 | 107 | -33 | 99 | 87

Rewritten as labelled records: four of the compounds above
#55 COc1ccc(C(=O)Oc2cccnc2)cc1OC
  GIV-Gai inh = 106; HCMV NEC inh = -14; Sa growth 42C = 92; Sa growth 42C second temp = 89

#56 CCOC(=O)c1cc(CC)sc1NC(=O)c1cccnc1Oc1ccccc1
  GIV-Gai inh = 98; HCMV NEC inh = /; Sa growth 42C = 106; Sa growth 42C second temp = 91

#57 COCCNC(=O)c1cnc2sc3c(n2c1=O)CCC3
  GIV-Gai inh = 103; HCMV NEC inh = -22; Sa growth 42C = /; Sa growth 42C second temp = /

#58 COc1ccc(C(=O)NCc2nnc(SCC(=O)Nc3ccccc3)n2-c2ccccc2)cc1
  GIV-Gai inh = 99; HCMV NEC inh = 5; Sa growth 42C = 121; Sa growth 42C second temp = 90

Other entries:
item | SMILES | GIV-Gai inh | HCMV NEC inh | Sa growth 42C | Sa growth 42C second temp
61 | CCc1n[nH]c(=S)n1/N=C/c1c(C)nn(-c2cccc(Cl)c2)c1Cl | / | -4 | 119 | 92
62 | O=C(O)c1ccc(N2CCN(c3cccc(Cl)c3)CC2)c(NS(=O)(=O)c2cccc(F)c2)c1 | 103 | -63 | / | /
63 | N#C/C(=C\Nc1ccc(F)c(Cl)c1)S(=O)(=O)Cc1ccco1 | 109 | 5 | 105 | 99
64 | O=C(NCCc1ccccc1)c1cc(Nc2ccccc2)nc2ccccc12 | 104 | / | 111 | 94
65 | COc1ccc(CCNC(=O)CCCCn2c(=O)c3ccccc3n(CC(=O)Nc3c(C)cccc3C)c2=O)cc1OC | 106 | -4 | 96 | 105
66 | CSC1=N/C(=C\c2ccccc2O)C(=O)N1Cc1ccco1 | 107 | -41 | 93 | 94
67 | C=CCn1c(NCc2ccc3c(c2)OCO3)nc2ccccc21 | 104 | 5 | 87 | 84
68 | Cc1ccc(S(=O)(=O)CCc2nnc(NC(=O)c3ccc(C)c([N+](=O)[O-])c3)s2)cc1 | 104 | -12 | / | /
69 | Oc1ccccc1/C=N/c1ccnn1-c1ccccc1 | 101 | -32 | 97 | 86
70 | CCN1CCCC1CNC(=O)c1nnc(Cc2ccc(F)cc2)o1 (stereo not given) | 107 | 3 | 85 | 95
71 | Cc1ccc(S(=O)(=O)n2nc(C(F)(F)F)c3cnccc32)cc1 | 101 | -2 | 98 | 95
72 | COc1ccc(/C=C2/N=C(SC)NC2=O)cc1OC | 102 | -41 | 105 | 101
73 | COc1ccc(CNC(=O)COc2cc(=O)n(C)c3ccccc23)cc1 | 99 | -20 | 81 | 89
74 | COc1ccc(OC)c(NC(=O)C2CCCN2C(=O)C2CCC(C)CC2)c1 (stereo not given) | 98 | -10 | 99 | 81
75 | O=C(COC(=O)Cc1cccc(C(F)(F)F)c1)Nc1ccccc1 | / | 1 | 90 | 92
76 | CCC(=O)Oc1c(Sc2ccc(Cl)cc2)c(C)nn1C(C)(C)C | 104 | -5 | 117 | 94
77 | COc1ccc(OCC(=O)NC2CCCCC2)cc1 | / | -1 | 94 | 97
78 | c1ccc2sc(SCCCN3CCCCC3)nc2c1 | 100 | -5&-1 | 78 | 86
79 | CC1CCc2c(sc3nc(CN(C)C)[nH]c(=O)c23)C1 (stereo not given) | / | -10 | 102 | 91
80 | CCc1cccc(OCCCN2CCN(C)CC2)c1 | 109 | 4 | 104 | 101
81 | CCOC(=O)C1=C(c2ccccc2)NC(SCC(=O)Nc2ccc(F)cc2)=C(C#N)C1c1ccco1 (stereo not given) | 101 | 2 | 112 | 94
82 | COc1nc(OCCNS(=O)(=O)c2ccc(C)cc2)nc(N(C)C)n1 | 103 | -20 | 97 | 88
83 | CCOC(=O)c1cc2ccsc2n1CC(=O)NC(C)(C)C | 108 | -18 | / | /
84 | CC(CN(C)Cc1ccccc1)OC(=O)c1cc2ccccc2o1 (stereo not given) | 94 | / | 107 | 92
85 | O=C(O)c1csc2c1CCCC2 | 100 | -2 | 106 | 89
86 | CCc1ccc(CNC(=O)C2CCN(c3nn4cc(-c5ccc(OC)cc5)nc4s3)CC2)cc1 | 106 | / | 113 | 91
87 | O=C(Nc1cc(C(F)(F)F)cc(C(F)(F)F)c1)C12CC3CC(CC(C3)C1)C2 | 104 | -34 | 109 | 97
88 | CC(=O)N1CCOc2cc(S(=O)(=O)NCC3CCC(C(=O)Nc4cccc(C)c4)CC3)ccc21 (stereo not given) | 104 | / | 104 | 93
89 | CC(Nc1ncnc2sc3c(c12)CCC3)C(=O)O (stereo not given) | 99 | -23 | 105 | 83
90 | CC1(C)C/C(=N\O)C(C(O)c2ccccc2)C(C)(C)N1 (stereo not given) | 107 | -17 | 100 | 82
91 | CC1=NN(c2cccc(C(=O)O)c2)C(=O)/C1=C\c1ccc(-c2ccc(Cl)c(C(=O)O)c2)o1 | 99 | -11 | / | /
92 | CC(C)/C=N/N1C(N)=C(C#N)C(C#N)(C#N)C1C(C)C (stereo not given) | / | 4 | 87 | 80
93 | CSc1nsc(SC)c1NC(=O)OCC1CCCO1 (stereo not given) | / | -13 | 96 | 84
94 | CC(C)(C)C(=O)/C(C#N)=C/c1ccc(-c2ccc(F)cc2)o1 | / | -22 | 86 | 87
95 | CCOC(=O)Nc1ccc2c(c1)N(C(=O)N(C)C)c1ccccc1CC2 | 109 | 12 | 101 | 96
96 | COc1ccc(S(=O)(=O)n2nc(-c3ccco3)nc2NCc2ccc(C(C)C)cc2)cc1 | 105 | 2 | 95 | 83
